Source: PubChem
HCMV UL50-53 inh – inhibitors of HCMV UL50-UL53 interaction, biochemical, HTRF | HCMV UL50-UL53 nuclear egress complex (human cytomegalovirus) | normalized percent inhibition | inhibition, % (concentration not given with the values) | 0.15% of 190,000 active | AID 1918969, 2023;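 active = both replicates at 50% or more, plus weaker picks with an unusually low signal ratio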;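 note: stock transfer was 100 nL into about 20 µL; 0% = negative control wells and 100% = wells with untagged competitor protein; inactives centre near -12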
GIV-Gai inh – inhibitors of GIV peptide binding to Galpha-i3, primary screen, biochemical, fluorescence polarization, FITC-GIV GBA peptide, rat Galphai3. Guanine nucleotide-binding protein G(i) subunit alpha-3 (Rattus norvegicus), P08753. 90 min; active compounds read low; scaled: aluminum fluoride 0%, vehicle 100%. percent of control (FP), % (concentration not given with the values). 0.42% of 210,000 active. AID 1224905, 2016;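 active = replicate mean at 85% of control or lower, very high polarization wells dropped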;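 note: wells of about 15 µL received 100 nL stock; the first replicate is given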
Target sequence (P08753 whole entry, looked up): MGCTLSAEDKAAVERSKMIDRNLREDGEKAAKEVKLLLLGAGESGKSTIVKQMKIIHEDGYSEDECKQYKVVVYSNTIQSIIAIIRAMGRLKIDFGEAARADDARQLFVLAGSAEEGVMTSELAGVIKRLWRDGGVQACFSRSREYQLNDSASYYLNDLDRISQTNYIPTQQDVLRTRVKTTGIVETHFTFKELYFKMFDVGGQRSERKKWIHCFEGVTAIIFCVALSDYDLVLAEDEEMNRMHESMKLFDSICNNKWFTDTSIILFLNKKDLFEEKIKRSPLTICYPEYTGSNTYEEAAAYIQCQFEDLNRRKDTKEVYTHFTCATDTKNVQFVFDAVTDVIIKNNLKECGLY
Sa growth inh – S. aureus growth inhibition at 42 and 30 °C, primary screen, LtaS inhibitor project, RN4220, two temperatures. AID 720641, 2013. 0.53% of 170,000 active. OD600, 20 h, 42 °C; active compounds read low. relative growth, % (concentration not given with the values);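 active = growth at 42 °C up to 50% and 20 or more points under that at 30 °C, or under 10% at both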;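 note: 300 nL library stock went into each well; scaled to the means of positive and negative controls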
Sa growth inh second temp – also measured in Sa growth inh; calls as there; relative growth, %; measured here: growth at 30 °C;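 optical density after 20 h as mean of two plates; 100% = untreated growth and lower means inhibition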
* = called active by the depositor; / = not tested or not shown.

Every second line gives: HCMV UL50-53 inh	GIV-Gai inh	Sa growth inh	Sa growth inh second temp
- CCC(=O)N1CCCC1c1nc2ccccc2[nH]1 (stereo unspecified)
→ -10	105	/	/
- Cc1nn2c3c(cnc2c1-c1ccccc1)C(=O)CCC3
→ -28	99	88	86
- c1ccc(CC2COC(C3=N[C@@H](Cc4ccccc4)CO3)=N2)cc1 (stereo partly specified)
→ -2	/	90	85
- NS(=O)(=O)c1cc(C(=O)OC2CCOC2=O)ccc1Cl (stereo unspecified)
→ -1	/	101	74
- Cc1ccc(NC(=O)COn2nnc3ccc(S(=O)(=O)N(C)C)cc32)cc1F
→ -26	/	72	81
- Nc1nc(SCC(=O)c2ccc3c(c2)OCCO3)nc(-c2ccccc2)n1
→ -26	/	103	87
- COc1ccc(NC(=O)CCS(=O)(=O)c2nc(-c3cccs3)cc(C(F)(F)F)n2)cc1OC
→ -21	106	102	80
- Cc1cccc(N(Cc2cc3ccccc3[nH]c2=O)C(=O)c2cccc(Cl)c2)c1
→ -12	108	98	87
- COc1ccc(Cc2c(C)nn(-c3nc(C)c(C(=O)Nc4ccc(C)cc4C)s3)c2C)cc1
→ 3	108	104	96
- Cc1ccc(Cn2c(=O)n(Cc3ccccc3Cl)c(=O)c3ccccc32)cc1
→ 7	104	94	91
- CCC(=O)N1CCc2cc(S(=O)(=O)CCC(=O)N3CCN(c4ccccc4F)CC3)ccc21
→ -15	103	104	91
- O=C(CCCn1c(=O)[nH]c2ccccc2c1=O)NCCc1ccccc1
→ /	103	103	92
- Cc1cc(=O)oc2cc(OC(=O)c3cc(F)c(F)c(F)c3F)ccc12
→ -24	/	79	85
- CCN(CC)CCn1c(NCc2ccncc2)nc2ccccc21
→ -12	98	89	96
- Cc1ccc(S(=O)(=O)N2CCC(n3cnc4cccnc43)CC2)cc1
→ -19	100	/	/
- Cc1ccc(Cl)cc1NC(=O)c1sc2nc(C)c(C)c(C)c2c1N
→ -14	110	100	91
- Cn1c(=O)c2nc(NCc3ccccc3)cnc2n(C)c1=O
→ -108	/	119	90
- N#CC1=C(N)Nc2c(oc(CO)cc2=O)C1c1conc1-c1ccc(F)cc1 (stereo unspecified)
→ -28	104	94	86
- Cc1ccc(OCC(=O)Nc2ccc(N3CCOCC3)cc2)c(-n2nc3ccccc3n2)c1
→ -8	/	115	90
- CN1CCN(c2cc(-c3ccccc3)ncn2)CC1
→ -5	99	/	/
- N#Cc1ccc(CN2CCN(CC(=O)NC(=O)Nc3ccccc3F)CC2)cc1
→ 2	/	89	97
- CCOc1ccccc1NC(=O)COC(=O)CCc1nc(=O)c2ccccc2n1C
→ -2	/	95	97
- Cc1ccc(-n2c(=O)c3ccc(C(=O)NCc4ccccc4Cl)cc3n(CC(=O)Nc3cccc(Cl)c3)c2=O)cc1
→ 19	107	100	104
- CN1/C(=C\C(=S)NC(=O)c2ccco2)C(C)(C)c2ccccc21
→ -57	/	77	53
- CCOC(=O)C1=CN(c2ccc(OCC)cc2)C=C(C(=O)OCC)C1c1cc(Br)ccc1OC
→ 1	110	/	/
- CN(CC(=O)NCc1ccccc1Cl)S(=O)(=O)c1ccc2c(c1)CCCC(=O)N2
→ -13	106	/	/
- COc1cc(=O)n(-c2ccc(F)cc2)nc1C(=O)Nc1ccc(Br)cc1
→ -9	103	/	/
- CCCCN(CCCC)C(=O)C1CCN(S(=O)(=O)c2cccc3nsnc23)CC1
→ -76	108	/	/
- Cc1ccc(OCC(=O)Nc2ccc3nc(SCc4ccccc4)sc3c2)cc1
→ -13	98	93	91
- CC1=NCCN1CCNC(=O)Nc1cc(C)cc(C)c1
→ 8	99	104	97
- COC(=O)c1ccccc1-n1cnc2ccccc2c1=O
→ 2	112	109	89
- C=CCN1C(=O)C(Cc2ccc(OCC)cc2)SC1=Nc1ccc(C(=O)O)cc1 (stereo unspecified)
→ -16	103	/	/
- Cc1ccc(NS(=O)(=O)c2ccc3c(c2)n(C)c(=O)n3C)cc1C
→ -15	106	120	81
- Cc1cc(=O)n2[nH]c(C3CC3)cc2n1
→ 2	103	120	98
- CC1CCc2ccccc2N1S(=O)(=O)c1ccc(CCC(=O)O)cc1 (stereo unspecified)
→ -18	/	111	98
- CC(=O)Nc1ccc(N2C(=O)c3cc(C)nn3CC2(C)C(=O)NCc2ccc(Cl)cc2)cc1 (stereo unspecified)
→ -1	94	/	/
- CCOc1ccccc1CNC(=O)c1sc2ncccc2c1-n1cccc1
→ /	107	97	93
- COC(=O)Cn1cnc2sc(-c3ccccc3)cc2c1=O
→ -30	/	117	78
- Cc1cc2nc(CSc3nnc(-c4ccc(Cl)cc4)o3)cc(=O)n2o1
→ -2	104	/	/
- O=C(C1CC(c2ccc(Cl)cc2)=NO1)N1CCCC1 (stereo unspecified)
→ -11	98	111	77
- Cc1nn2c(=O)cc(COC(=O)c3ccc(NC(=O)c4cccs4)cc3)nc2s1
→ /	101	91	101
- Brc1ccc2nc(N3CCCC3)sc2c1
→ /	106	113	97
- CCOC(=O)c1[nH]c(COC(=O)c2ccc3c(c2)OCO3)c(C(=O)OCC)c1C
→ -5	/	82	95
- Cc1ccc2c(CC(=O)OC(C)C(=O)Nc3ccc4c(c3)OCCO4)coc2c1 (stereo unspecified)
→ -23	/	105	88
- N#C/C(=C/c1ccccc1)C(=O)Nc1ccc(O)cc1
→ -28	99	105	105
- CC(C)(C)Nc1cccccc1=NCc1ccccc1
→ /	96	88	81
- CC1(C)CC2CC(C)(CN2C(=O)Cc2ccccc2)C1 (stereo unspecified)
→ -24	102	109	79
- Cc1ccc(NC(=O)CCn2c(=O)sc3ccccc32)cc1C
→ 10	109	110	96
- Cc1cccc(C(=O)OC(C)C(=O)NCC2CCCCC2)c1O (stereo unspecified)
→ -16	/	83	88
- CCOC(=O)C1CCCN(C(=O)CCS(=O)(=O)Cc2ccccc2)C1 (stereo unspecified)
→ -14	101	110	96
- Cc1ccc2sc(N(Cc3cccnc3)C(=O)C3COc4ccccc4O3)nc2c1C (stereo unspecified)
→ /	102	182	70
- O=C(c1ccc(S(=O)(=O)N2CCCCC2)cc1)N1CCN(c2ccccc2F)CC1
→ -20	100	92	83
- CC1=NN(C(=O)c2ccco2)C(O)(c2ccncc2)C1 (stereo unspecified)
→ -28	/	99	90
- CC(C)Cc1cc(-c2nn3c(-c4ccc(Cl)cc4)nnc3s2)n[nH]1
→ -24	104	/	/
- Cc1ccc(Cl)cc1N1CCN(CCCNC(=O)c2c(-c3ccccn3)noc2C)CC1
→ -9	100	/	/
- CC(=O)C1=C(c2ccccc2)OC(N)=C(C#N)C1c1ccccc1F (stereo unspecified)
→ -16	103	/	/
- O=C(Cn1ncc2c(=O)oc3ccccc3c21)NCCN1CCN(c2ccccc2F)CC1
→ -22	102	102	87
- CCC(C)NC(=O)CN1C(=O)C(CC)Sc2ccccc21 (stereo unspecified)
→ /	100	108	92
- COC(=O)c1ccccc1NC(=O)Cn1c(=O)nc(-c2ccccc2)c2ccccc21
→ -6	109	/	/
- COC(=O)C1C(=O)c2c([nH]c(C(=O)OC3CCCCCC3)c2C)CC1C (stereo unspecified)
→ -20	109	101	83

(further entries)
Every second line gives: HCMV UL50-53 inh	GIV-Gai inh	Sa growth inh	Sa growth inh second temp
- COc1cc2ccccc2cc1C(=O)Nc1ccc2oc(-c3ccc(F)cc3Cl)nc2c1
→ -33	101	100	92
- CCc1ccccc1NC(=O)c1cc2sc(Cl)cc2n1CC
→ -13	103	105	94
- NC(=O)c1ccccc1N=Cc1ccc(O)c(O)c1
→ -14	/	87	75
- Cc1cccc(CCNC(=O)c2cnc3c(C)cccn3c2=O)c1
→ /	97	105	86
- O=C(O)COc1ccc(/C=C2/SC(=O)NC2=O)cc1
→ -42	109	95	89
- Cn1c(=O)c(-c2noc(C(=O)NCCN3CCCC3)n2)nn(-c2ccccc2)c1=O
→ -128	102	/	/
- CN1C(=O)Cc2ccccc2C1=O
→ 67*	80*	97	82
- COCC(C)n1c(COc2ccccc2F)n[nH]c1=S (stereo unspecified)
→ -12	/	108	80
- Cc1cc(OCC(O)Cn2c(C3CC(=O)N(C(C)(C)C)C3)nc3ccccc32)cc(C)c1Cl (stereo unspecified)
→ 17	102	/	/
- CCc1cc2c(cc3c(=O)n(CC(=O)NCCOC)nc(CC)n32)s1
→ -27	103	114	76
- CCCn1c(=O)c2ccc(C(=O)NC(C)C)cc2n2c(=O)n(CC(=O)c3ccc(C)cc3C)nc12
→ -18	107	/	/
- Cc1ccc(CN2CCCN(CC(=O)Nc3ccc(C)cc3C)S2(=O)=O)cc1
→ /	105	123	90
- Cn1c(=O)n(C)c2cc(Sc3ccc(Cl)cc3)c(NS(=O)(=O)c3cc(F)ccc3F)cc21
→ -7	101	/	/
- Cc1ccc(C)c(Cn2c(=O)n(CCCCCC(=O)NCc3ccc4c(c3)OCO4)c(=O)c3sccc32)c1
→ -1	105	99	83
- CCc1nnc(SCc2ccc(F)cc2Cl)c2cc3sc(C)cc3n12
→ /	105	113	102
- CCOc1ccc(NC(=O)c2c(NCc3cccnc3)sc3c2CCC(C)C3)cc1 (stereo unspecified)
→ /	105	70	56
- CC1CCCCC1NS(=O)(=O)c1cccc2nsnc12 (stereo unspecified)
→ -107	104	95	85
- O=C(c1ccccc1Cl)N1CCCCC1CCN1CCOCC1 (stereo unspecified)
→ 0	105	101	89
- CC(C)(C)NC(=S)Nc1ccccc1C(F)(F)F
→ 3	101	110	96
- CCc1ccc(NC(=NC)c2ccco2)cc1
→ -20	/	64	88
- CCOC(=O)c1cc2nc(Nc3ccc(OC)cc3)sc2s1
→ -18	150	104	80
- CCCC(Nc1cc(Cl)cc(Cl)c1)n1nnc2ccccc21 (stereo unspecified)
→ -9	/	87	90
- Cc1ccc2cccc(NC(=O)c3ccc(-c4cccc(Cl)c4Cl)o3)c2n1
→ -9	103	97	90
- CCn1cc(C(=O)OCC(=O)Nc2cc(OC)cc(OC)c2)c(=O)c2ccc(C)nc21
→ 2	106	102	95
- O=C(Nc1ccc2c(c1)OCCO2)c1cccc2c1C(=O)N(Cc1cccnc1)C2
→ /	100	86	70
- Clc1ccc(N2CC=CCC2)nn1
→ -20	102	93	82
- COc1cc(Br)c(CN(CCc2ccc(O)cc2)C(=O)C(F)(F)F)cc1O
→ -3	/	59	36
- COc1ccc(Br)cc1CNC(=O)c1cc2c(=O)n(C)c3ccccc3c2s1
→ -31	103	102	95
- O=C(CC(c1cccs1)N1Cc2ccccc2C1=O)NCc1ccc(CN2CCOCC2)o1 (stereo unspecified)
→ -30	102	98	78
- Cc1cc(C)c(NC(=O)C(C)n2c(=O)cc(C)c3c(C)nn(-c4ccccc4)c32)c(C)c1 (stereo unspecified)
→ /	106	96	90

Some of these compounds in order of their number in Sa growth inh second temp, lowest first:
compound	GIV-Gai inh	Sa growth inh second temp
COc1cc(Br)c(CN(CCc2ccc(O)cc2)C(=O)C(F)(F)F)cc1O	/	36
Cc1ccc2cccc(NC(=O)c3ccc(-c4cccc(Cl)c4Cl)o3)c2n1	103	90
O=C(CCCn1c(=O)[nH]c2ccccc2c1=O)NCCc1ccccc1	103	92
N#C/C(=C/c1ccccc1)C(=O)Nc1ccc(O)cc1	99	105

The list continues.
Every second line gives: HCMV UL50-53 inh	GIV-Gai inh	Sa growth inh	Sa growth inh second temp
- Cc1ccc(S(=O)(=O)NCc2nc3nc(C)cc(C)n3n2)c(C)c1
→ 11	99	87	95
- Cc1ccc(-c2nc(CS(=O)CC(=O)NCCc3ccc(Cl)cc3)c(C)o2)cc1 (stereo unspecified)
→ -34	103	92	89
- COC(=O)c1c(-c2c(Cl)cccc2Cl)noc1NC(=O)NN1CCOCC1
→ -37	108	89	73
- COC(=O)c1cc2oc3ccccc3c2n1CC(=O)Nc1ccc(C)c(F)c1
→ -12	100	117	91

Among those listed so far, 4 contain a cyano group:
Every second line gives: HCMV UL50-53 inh	GIV-Gai inh	Sa growth inh	Sa growth inh second temp
- N#CC1=C(N)Nc2c(oc(CO)cc2=O)C1c1conc1-c1ccc(F)cc1 (stereo unspecified)
→ -28	104	94	86
- N#Cc1ccc(CN2CCN(CC(=O)NC(=O)Nc3ccccc3F)CC2)cc1
→ 2	/	89	97
- N#C/C(=C/c1ccccc1)C(=O)Nc1ccc(O)cc1
→ -28	99	105	105
- CC(=O)C1=C(c2ccccc2)OC(N)=C(C#N)C1c1ccccc1F (stereo unspecified)
→ -16	103	/	/
